Screening results from PubChem BioAssay.
MARV entry inh = qHTS for inhibitors of binding or entry into cells for Marburg Virus | Marburg virus pseudotyped entry inhibition, cell reporter; control for the full effect not named in the record; about a third of the inactives were read at about 46 µM | Potency, µM (highest dose often 37.8 µM), for inactives: at the highest dose activity change, negative = inhibition, hits mostly inhibitors | 1.8% of 300,000 active; active = well fitted inhibition curve with a large enough effect; inconclusive = small, poorly fitted or top-dose-only effect, or effect the other way; inactive = flat fitted curve, though single readings scatter; tested in HEK293 cells; about a fifth of its hits are not listed in these tables; also: % is scaled to controls: 0 for no effect and ±100 for the full control effect; luciferase read-out
SARS PLpro yeast = qHTS of Yeast-based Assay for SARS-CoV PLP; S. cerevisiae expressing SARS-CoV PLpro, growth rescue; control for the full effect not named in the record; Potency, µM (top dose mostly 32.9 µM), inactives show at the top dose activity, positive = growth rescue; 0.19% of 330,000 active; AID 485353, 2010; active means well fitted rising curve with a large enough effect; inconclusive means small, poorly fitted or top-dose-only effect; inactive means no such curve, though single readings can be large or run the other way; also: 0% is about no effect; nearly all actives have a fitted effect of over 55% in size; growth read by luminescence after 48 h
Cruzain noTriton = qHTS Assay for Promiscuous and Specific Inhibitors of Cruzain (without detergent). purified cruzain, Z-FR-AMC fluorescence, no detergent. Potency, µM, without a hit: max response, negative = inhibition, hits mostly inhibitors. 2.3% of 200,000 active. AID 1476, 2009;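 also: plate controls were enzyme without inhibitor for no effect and buffer without enzyme for full effect; nearly all actives have a fitted effect of over 40% in size; top concentration of the series not given in the record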
Target sequence (P25779 123-467 limits assumed): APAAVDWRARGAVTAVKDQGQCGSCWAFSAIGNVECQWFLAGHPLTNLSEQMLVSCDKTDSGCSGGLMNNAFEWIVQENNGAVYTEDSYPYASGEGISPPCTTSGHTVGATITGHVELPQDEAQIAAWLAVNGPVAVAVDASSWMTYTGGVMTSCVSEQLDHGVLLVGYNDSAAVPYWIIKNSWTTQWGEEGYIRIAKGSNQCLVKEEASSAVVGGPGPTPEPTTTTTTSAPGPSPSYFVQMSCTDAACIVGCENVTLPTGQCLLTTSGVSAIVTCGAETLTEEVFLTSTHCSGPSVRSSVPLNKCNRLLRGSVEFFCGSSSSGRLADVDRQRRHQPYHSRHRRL
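Detergent-free condition (0.00005% Triton X-100) in acetate buffer pH 5.5 with DTT. 1.5 nM enzyme and compound were pre-mixed 15 min, then 2 uM Z-FR-AMC substrate added; reaction progress from fluorescence change between first and third reads (60 s).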
RE007 growth inh = qHTS Assay for Inhibitors of the HIV-1 protein Vpr | S. pombe RE007 Vpr strain, BacTiter-Glo ATP luminescence, 24 h; control for the full effect not named in the record | Potency, µM (doses to about 92.2 µM), for inactives: at the top dose activity change, negative = less growth | 0.21% of 360,000 active | AID 651644, 2012; active = well fitted falling curve with a large enough effect; inconclusive = small, poorly fitted or top-dose-only effect; inactive = no such curve, though single readings can be large or run the other way;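 also: % is scaled to controls: 0 for no effect and ±100 for the full control effect; nearly all actives have a fitted effect of over 50% in size; the assay follows cell death caused by Vpr and the record does not say whether a fall means rescue or toxicity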
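Fission yeast RE007 carrying one integrated HIV-1 vpr copy, seeded at OD 0.01 in PMG+AL medium with 23 nL pinned compound. Grown 24 h at 30 degrees; viability read by BacTiter-Glo luminescence after 5 min.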
NS1 function inh = qHTS Assay for Inhibitors of Influenza NS1 Protein Function; AID 2326, 2010; 0.4% of 270,000 active; S. cerevisiae slowed by influenza A NS1, growth recovery by OD600; Potency, µM (highest dose often 46.1 µM), inactives show top-dose activity, positive = more growth; active means well fitted rising curve with a large enough effect; inconclusive means small, poorly fitted or top-dose-only effect; inactive means no such curve, though single readings can be large or run the other way; also: nearly all actives have a fitted effect of over 50% in size
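Read-out: OD600 growth recovery of NS1-expressing budding yeast. Cells grown overnight at 30C in -URA glucose medium, washed, resuspended and diluted 1:100 in 2% galactose assay medium, pH 6.0. Same strain lacking NS1 served as positive control.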
Cruzain inh Det = qHTS Assay for Promiscuous and Specific Inhibitors of Cruzain (with detergent); Potency, µM, for the others: max response, negative = inhibition, actives largely listed as inhibitors; AID 1478, 2009; 0.43% of 200,000 active; Cruzipain (Trypanosoma cruzi), P25779; purified cruzain, Z-FR-AMC fluorescence, 0.01% Triton;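 also: plate controls were neutral wells for no effect and buffer without enzyme for full effect; nearly all actives have a fitted effect of over 40% in size; top concentration of the series not given in the record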
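Cruzain (1.5 nM) preincubated 15 min at RT with compound in 100 mM sodium acetate pH 5.5, 5 mM DTT, 0.01% Triton X-100. Reaction started with 2 uM Z-FR-AMC; AMC fluorescence (ex 360/em 450 nm) change over 60 s gave rate.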
LASV entry inh = qHTS for Inhibitors of binding or entry into cells for Lassa Virus; Potency, µM (top dose mostly 37.9 µM), for inactives: top-dose activity change, negative = inhibition, usual class: inhibitors; Lassa virus pseudotype entry inhibition, cell reporter; control for the full effect not named in the record; 1.2% of 300,000 active; active means well fitted inhibition curve with a large enough effect; inconclusive means small, poorly fitted or top-dose-only effect, or effect the other way; inactive means flat fitted curve, though single readings scatter; tested in HEK293 cells; also: % is scaled to controls: 0 for no effect and ±100 for the full control effect; nearly all actives have a fitted effect of over 50% in size; luciferase read-out
StopGo reporter = High Throughput Screening for Foot and Mouth Disease Virus Antivirals | human cells with a luciferase reporter of 2A StopGo recoding; control for the full effect not named in the record | Potency, µM (top dose mostly 57.9 µM), inactives show at the highest dose signal change, negative = less light | 1.2% of 410,000 active; active = well fitted falling curve with a large enough effect; inconclusive = small, poorly fitted or top-dose-only effect; inactive = no such curve, though single readings can be large or run the other way; tested in HEK293T cells; also: % is scaled to controls: 0 for no effect and ±100 for the full control effect; nearly all actives have a fitted effect of over 45% in size; luciferase light after 4 h
* marks the source's active call; other numbers are inactive results; ? = inconclusive; . = no result given; & = joins results of further samples; [ ] = another dose, or the depositor's remark. Unless noted, calls follow the shape of the dose curve; as a rule, active = well fitted curve in the direction sought with a large enough effect; inconclusive = small, poorly fitted or top-dose-only effect, or another doubt; inactive = no such curve, though single readings can be large; an effect the other way counts as inactive or inconclusive. Potency is read from the fitted curve at half-maximal effect. Hits appear at their usual frequency (roughly 4.6% active in at least one column).

SMILES	MARV entry inh	SARS PLpro yeast	Cruzain noTriton	RE007 growth inh	NS1 function inh	Cruzain inh Det	LASV entry inh	StopGo reporter
CCOc1ccc(S(=O)(=O)NCC(c2ccco2)S(=O)(=O)c2cccs2)cc1 (stereo not drawn)	.	.	-3%	.	.	-5.5%	?	54%[activator]
Cc1cccc(C(=O)Nc2sc3c(c2C(=O)O)CCCC3)c1	2µM*	-3%	-6%	5%	-41%	-8.3%	?	-10%&30%
Cc1ccc(C)c(CN2C(=O)c3ccccc3S(=O)(=O)c3ccc(C(=O)N4CCN(c5ccccc5)CC4)cc32)c1	-17%[46.1 µM]	.	-27%	.	.	-0.6%	0%[46.1 µM]	1%
CCc1ccc(C2=NNC(=Nc3cccc(S(=O)(=O)N(C)C)c3)SC2)cc1	?	-10%	?	15%	20%	-7.6%	?	-7%
Cc1[nH]c2ccc3c(ncn3CCC#N)c2c1C	-8%&-8%	2%	1%	4%	7%	8.7%	7%	6%
O=S(=O)(Nc1ccc2c(c1)nc1n2CCN(Cc2ccccc2)C1)c1ccc(Cl)cc1	-3%	1%	25µM*	-3%[3.69 µM]	8%	-3.4%	-18%	-5%
COc1ccc(OC)c(S(=O)(=O)Nc2cccc(-c3ccc(N4CCCCC4)nn3)c2)c1	.	.	13%	.	.	-2.0%	7%[46.1 µM]	42%[activator]
CCC(CC)c1nnc(NC(=O)C2CC(=O)N(CCc3ccc(OC)c(OC)c3)C2)s1 (stereo not drawn)	-14%	2%	.	-15%	.	.	2%	-20%
Cn1c(N)c(N2CCCCC2)c(=O)n(CC(=O)Nc2cccc(C#N)c2)c1=O	-3%	15%	.	-13%	.	.	16%	3%
CCOC(=O)/C(=N\Nc1cccc(C(F)(F)F)c1)N(CCOC)CCOC	-3%	-28%	?	59%	-70%	-5.9%	-22%	-11%
COc1ccc(C(=O)CCC(=O)O)c(C)c1	10%	-1%	5%	0%	-10%	3.4%	10%	-19%
Cc1ccc(C)c2[nH]c(=O)c(CN(CCCN(C)C)C(=O)NCc3ccccc3)cc12	?	5%	11%	-11%	0%	0.1%	0%	-12%

The closing four entries of the part above are carried over, then new ones follow.
SMILES	MARV entry inh	SARS PLpro yeast	Cruzain noTriton	RE007 growth inh	NS1 function inh	Cruzain inh Det	LASV entry inh	StopGo reporter
Cn1c(N)c(N2CCCCC2)c(=O)n(CC(=O)Nc2cccc(C#N)c2)c1=O	-3%	15%	.	-13%	.	.	16%	3%
CCOC(=O)/C(=N\Nc1cccc(C(F)(F)F)c1)N(CCOC)CCOC	-3%	-28%	?	59%	-70%	-5.9%	-22%	-11%
COc1ccc(C(=O)CCC(=O)O)c(C)c1	10%	-1%	5%	0%	-10%	3.4%	10%	-19%
Cc1ccc(C)c2[nH]c(=O)c(CN(CCCN(C)C)C(=O)NCc3ccccc3)cc12	?	5%	11%	-11%	0%	0.1%	0%	-12%
COc1cccc(CNC(=O)Cc2csc(NC(=O)Nc3ccccc3OC)n2)c1	-20%	2%	.	8%	.	.	?	-5%
C/C(=N/NC(=O)c1ccc(Cl)cc1Cl)c1cccnc1	.	0%	.	-14%	0%	.	.	41%[activator]
Cc1ccc(-n2ncc3c(Nc4ccc5c(c4)OCCO5)ncnc32)cc1C	.	.	7%	.	.	1.6%	10%[46.1 µM]	-7%
COCC(C)n1c(SCC(=O)N(C)C2CCS(=O)(=O)C2)nc2ccccc2c1=O (stereo not drawn)	6%	3%	.	-4%	3%	.	6%	-12%
Cc1cccc(C)c1NS(=O)(=O)c1cc2c3c(c1)CC(=O)N3CCC2	.	15%	.	-18%	?	.	.	0%
COc1ccc(N2C(=O)CC(N3CCN(c4cccc(Cl)c4)CC3)C2=O)cc1 (stereo not drawn)	.	-7%	.	4%	7%	.	.	-24%
CCCCCCCCCCNC(=O)C(=O)Nc1ccccn1	9%	11%	11%	-1%	6%	3.9%	-12%	-16%
COc1ccc(C(CC(=O)O)NC(=O)c2cc3cc(Br)ccc3oc2=O)cc1OC (stereo not drawn)	?	4%	.	3%	.	.	1%	5%
COc1ccc(-c2nnc(N(C)C(=O)C3CCCO3)s2)cc1 (stereo not drawn)	10%	-11%	-16%	-20%	-2%	-2.9%	-3%	1%
CCn1cc(/C=C(\NC(=O)c2ccccc2Cl)C(=O)N2CCN(C)CC2)c2ccccc21	?	-2%	.	-3%	4%	.	?	6%
O=C(O)CSc1nc2c(c(C(F)(F)F)n1)CCCC2	6%&6%[46.1 µM]	0%&-2%	.	10%&-3%	1%	.	-13%	-8%&-10%
CCc1ccc(-c2nc(SCC(=O)NCC3CCCO3)c(-c3ccc(C)cc3)[nH]2)cc1 (stereo not drawn)	?	.	6%	.	.	-2.5%	1%[46.1 µM]	5%
CS(=O)(=O)N(CC(=O)N1CCOCC1)c1ccc2c(c1)OCO2	-4%	3%	15%	4%	3%	3.1%	-1%	-7%
COc1ccc(NC(=O)c2cnc(N3CCOCC3)c3ccccc23)cc1OC	.	.	24%	.	.	-5.0%	-25%[46.1 µM]	-35%
Cc1cc2oc(=O)cc(CN3CCCCC3C)c2cc1C(C)C (stereo not drawn)	-26%[46.1 µM]	1%	.	-13%	-8%	.	?	-28%
Nc1ccc(S(=O)(=O)N2CCCC2C(=O)O)cc1 (stereo not drawn)	.	-1%	.	6%	4%	.	.	-10%
O=S(=O)(/C=C/c1ccccc1)NCCc1ccccn1	?	5%	-19%	5%	-9%	5.1%	4%	76%[activator]
COc1cccc(CN(C)CC(=O)NC(=O)NCc2ccccc2)c1	3%	-8%	15%	26%	-2%	0.7%	?	-9%
CC(C)(C)NC(=O)CSc1nnc(-c2ccccn2)n1-c1ccccc1	.	2%	-4%	4%	-2%	2.0%	.	0%
CCNc1nc(NCC)n2c(SCC(=O)c3ccccc3Cl)nnc2n1	24%[46.1 µM]	0%	.	-10%	3%	.	0%[46.1 µM]	-10%
C/C(=N\NC(=O)c1ccccc1F)c1ccccn1	?	-4%	.	?	-57%	.	7.1µM*	13µM*
COc1ccc(CNC(=O)C(c2ccccc2F)N(C(=O)c2csnn2)C2CC2)cc1 (stereo not drawn)	-4%[46.1 µM]	-2%	.	-1%	5%	.	-19%	-9%
Cc1c(C(=O)NC(C)c2ccccc2)sc2nc3n(c(=O)c12)CCCC3 (stereo not drawn)	.	.	-1%	.	.	-2.9%	-12%[46.1 µM]	-7%
CCOC(=O)/C(C#N)=C1/C=C(C)NC(c2ccccc2O)=N1	?	-8%	6%	8%	-9%	-0.8%	?	?
Cc1ccc(Cn2ncc3c(N4CCN(c5ccc(C)cc5)CC4)ncnc32)cc1	?	?	-2%	5%	5%	-6.3%	0%	?
CC(C)[C@H](NC(=O)c1ccccc1)C(=O)OCC(=O)N1CCc2ccccc2C1	-5%	1%	2%	11%	-20%	2.0%	-12%	0%
O=C(O)c1cc(NC(=O)c2cccc(C(=O)Nc3cc(C(=O)O)cc(C(=O)O)c3)c2)cc(C(=O)O)c1	.	8%	.	7%	-1%	.	.	-9%
Cc1ccc(-c2nc3ccccc3c(=O)o2)cc1	.	-2%	.	-10%	-29%	.	.	66%[activator]
Fc1ccc(-c2ccc(CNCc3ccccn3)o2)cc1Cl	21%[46.1 µM]	-2%	.	0%	2%	.	0%[46.1 µM]	-4%
Cc1cc(N/N=C/c2ccccc2)nc(NCc2ccccc2)n1	?	-21%	-2%	5%	-17%	-13%	?	-7%
Fc1cccc(Cl)c1-c1nnc2ccc(C(F)(F)F)cn12	-15%[46.1 µM]	-2%	.	2%	9%	.	1%[46.1 µM]	-7%
CC(NC(=O)CN1CCN(Cc2cccc(F)c2)CC1)c1ccccc1 (stereo not drawn)	-1%	4%	.	-24%	9%	.	-10%	-1%
Cc1ccc(NC(=O)Cc2nc(CCl)cs2)cc1	2%	-9%	?	-14%	2%	-0.2%	9%	2%
Cc1sc2ncn(CC(=O)NCCCC(=O)N(C)Cc3ccccc3)c(=O)c2c1C	-13%[46.1 µM]	-1%	.	8%	-5%	.	11%	7%
O=C(Cn1cnc(S(=O)(=O)N2CCCCC2)c1)NCc1ccco1	.	1%	.	0%	-4%	.	.	-16%
COc1cc(SC)ccc1C(=O)N(C)Cc1ccccc1	11%	0%	3%	21%	-36%	1.3%	-9%	44%[activator]
CCCC(=O)NC(c1ccc(N(C)C)cc1)c1ccc2cccnc2c1O (stereo not drawn)	?	7.1µM*	.	?	-99%	.	?	1%
CSc1nc(Cl)cc(N(CCO)CCO)n1	-5%	-3%	0%	-5%	14%	6.1%	8%	-18%
CNC(=O)c1[nH]cnc1C(=O)Nc1cccc(OC)c1	3%	-1%	1%	7%	-11%	3.8%	-25%	-8%
CCOC(=O)C1CCCN(C2CC(=O)N(c3ccccc3)C2=O)C1 (stereo not drawn)	.	-5%	.	?	-56%	.	.	-3%
Cc1ccc(-c2ccc(/C=N/NC(=O)CN3CCCC3)o2)cc1Cl	?	-2%	?	1%	1%	-16%	-13%	-6%
CC(C)CNC(=O)c1cccc2c1-c1ccccc1C2=O	1%[46.1 µM]	2%	.	4%	1%	.	-6%[46.1 µM]	-8%
Oc1ccc(/C=N/NC(=S)Nc2cccnc2)cc1O	?	4%	-12%	4%	20%	-16%	?	?
COc1ccc(Cl)cc1NC(=S)Nc1ccc(Cl)cn1	-9%	-1%	.	2%	-1%	.	13%	6%
Cc1ccc(C(=O)Nc2ccon2)cc1S(=O)(=O)N1CCCC1	22%	7%	0%	1%	13%	3.0%	8%	0%
